HCMV UL50-53 inh: cytomegalovirus nuclear egress complex inhibition. HTRF UL50-UL53 interaction, normalized percent inhibition. inhibition, % (test concentration not listed). actives 0.15% (n = 190,000). AID 1918969;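 active = both replicates at 50% or more, plus weaker picks with an unusually low signal ratio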;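 also: stock transfer was 100 nL into about 20 µL; 0% = negative control wells and 100% = wells with untagged competitor protein; inactives centre near -12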
GIV-Gai inh: GIV-Galpha-i interaction inhibition. percent of control (FP), % (test concentration not listed). AID 1224905. Galpha-i3/FITC-GIV peptide fluorescence polarization, 90 min; stronger effect = lower value; scaled: aluminum fluoride 0%, vehicle 100%. actives 0.42% (n = 210,000). P08753;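 active = replicate mean at 85% of control or lower, very high polarization wells dropped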;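 also: wells of about 15 µL received 100 nL stock; the first replicate is given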
Target sequence (P08753 whole entry, looked up): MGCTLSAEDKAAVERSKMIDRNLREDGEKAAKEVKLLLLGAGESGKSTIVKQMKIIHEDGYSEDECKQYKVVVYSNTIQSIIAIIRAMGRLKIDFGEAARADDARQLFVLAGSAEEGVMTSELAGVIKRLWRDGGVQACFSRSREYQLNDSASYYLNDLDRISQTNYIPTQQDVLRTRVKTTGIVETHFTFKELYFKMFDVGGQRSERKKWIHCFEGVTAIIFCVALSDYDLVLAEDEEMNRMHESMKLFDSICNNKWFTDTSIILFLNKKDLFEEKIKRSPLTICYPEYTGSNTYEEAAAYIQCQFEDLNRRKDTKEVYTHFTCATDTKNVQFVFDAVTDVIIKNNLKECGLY
Sa growth inh: blocks Staphylococcus aureus growth | S. aureus RN4220 growth, OD600, 20 h, 42 °C; stronger effect = lower value | relative growth, % (concentration not given with the values) | actives 0.53% (n = 170,000) | AID 720641;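 active = growth at 42 °C up to 50% and 20 or more points under that at 30 °C, or under 10% at both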;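 also: 300 nL library stock went into each well; scaled to the means of positive and negative controls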
Sa growth inh second temp: recorded beside Sa growth inh, whose call it bears; relative growth, %; measured here: growth at 30 °C;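 optical density after 20 h as mean of two plates; 100% = untreated growth and lower means inhibition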
Starred values were filed as active, the others as inactive; / = no result given; & = joins results of further samples.

SMILES	HCMV UL50-53 inh	GIV-Gai inh	Sa growth inh	Sa growth inh second temp
Cc1ccccc1CNC(=O)c1nn(-c2ccccc2F)nc1CO	-6	96	100	91
CCOC(=O)C1=NN(C(=O)c2cccc(OC)c2)C(O)(C(C)(C)C)C1 (stereo unspecified)	-10	99	129	97
COc1ccc(C)cc1NC(=O)Cc1ccc(NC(=O)N2CCCCc3ccccc32)cc1	/	100	98	93
Cn1nc(-c2ccc(OCC(=O)Nc3cccc(C(F)(F)F)c3)cc2)c2ccccc2c1=O	-73	99	86	90
CCOC(=O)c1cc(S(=O)(=O)N2CCN(c3cccc(C)c3C)CC2)[nH]n1	/	108	73	69
CCOc1ccc(OCCSc2nc3ccccc3n2CC(N)=O)cc1	24	110	/	/
NNC(=O)c1csc(Cc2c(Cl)cccc2Cl)n1	-15	113	95	84
O=C(COc1ccc2c(c1)CCC2)N(Cc1nnc(-c2ccc(Cl)cc2)o1)C1CC1	-28	/	90	95
O=C(O)CCCc1ccc2c(c1)OCO2	-15	101	91	91
O=C(NCc1cccnc1)c1ccc(NC(=O)c2nnc(COc3ccc(Cl)cc3)s2)cc1	-15	103	/	/
S=C(NCc1ccco1)Nc1ccn(C23CC4CC(CC(C4)C2)C3)n1	-5	103	102	94
CN(C)c1ccc(/C=C/C2=Nc3ccccc3SC(C)(C)C2)cc1	/	140	89	75
Cn1c(=O)n(C)c2cc(Sc3ccccc3)c(NS(=O)(=O)c3cccc4nsnc34)cc21	-41	107	/	/
NC(N)=NC(N)=Nc1cccc(Cl)c1	0&-14	108	/	/
CCn1c(-c2nonc2NC(=O)c2ccccc2)nc2ccccc21	-8	110	111	99
CCS(=O)(=O)c1cccc(C(=O)Nc2ccc(-c3nc4ccccc4s3)c(O)c2)c1	/	98	79	65
Cc1ccc(C)n1-c1sccc1C(=O)O	28	27*	/	/
CCOc1ccc(CCNC(=O)c2cc3c(=O)n(CC)c4ccccc4c3s2)cc1OCC	-6	99	109	89
Cc1noc2c1C(c1cccc(O)c1)C1=C(CC(c3ccccc3O)CC1=O)N2 (stereo unspecified)	-2	99	/	/
O=c1ccn(-c2ccc(F)cc2)nc1-c1ccnc(=S)[nH]1	-108	103	73	84
COc1ccc2cnn(-c3nc4ccccc4s3)c(=O)c2c1OC	-13	110	111	93
COc1ccc(NC(=O)c2c(C)oc3ccc(OC)cc23)c(OC)c1	-1	103	/	/
COC(=O)c1ccc(OCC2c3cc(OC)c(OC)cc3CCN2C(=O)C(C)C)cc1 (stereo unspecified)	/	112	99	98
Cc1ccccc1-c1nnc(SCC(=O)N2CCCc3ccccc32)n1C	-18	100	114	80
Cc1cccc(NC(=O)C(NC(=O)c2ccc(C34CC5CC(CC(C5)C3)C4)cc2)C(C)C)n1 (stereo unspecified)	/	105	100	93
COC(=O)C(C(=O)OC)c1cc(Br)c2noc3c2c1C(=O)c1ccccc1-3	72	116	79	43
Cc1ccc2nc(Cl)c3cc(C(=O)NCCCN4CCC(C)CC4)sc3c2c1	-29	102	105	85
Cc1oc(-c2cccc(Cl)c2)nc1CN1CCCC(C(=O)N2CCN(c3cccc(Cl)c3)CC2)C1 (stereo unspecified)	-17	101	38	2
CCOc1ccc(C(C)(C)C)cc1S(=O)(=O)Nc1ccc(Cl)cn1	-12	111	111	100
CN(C)C1(CNC(=O)NCC2(N(C)C)CCCCC2)CCCCC1	-22	/	88	85
CC(C)CNC(=S)N1CCCC1	-28	97	100	89
O=C(Nc1cccc2nsnc12)c1[nH]nc2c1CCc1ccccc1-2	1	103	/	/
NC(=S)c1ccc[n+]([C@@H]2O[C@@H](COP(=O)([O-])OP(=O)(O)OC[C@H]3O[C@@H](n4cnc5c(N)ncnc54)C(OP(=O)(O)O)[C@H]3O)C(O)C2O)c1 (stereo partly specified)	-39	102	/	/
Cc1cccc(CS(=O)(=O)Cc2ccc(C(=O)NCCc3ccccc3)o2)c1	/	105	113	98
O=C(CSc1ccc(Cl)cc1)c1ccco1	-21	/	113	75
COc1ccc(-c2nc3cc(NC(=O)Cc4ccc(Cl)cc4)ccc3o2)cc1OC	-51	105	107	90
Cc1ccccc1NC(=O)COC(=O)c1ccc(-c2ccccc2)cc1	-34	/	104	85
COc1cc(NC(=O)Cn2cc(S(=O)(=O)N3CCC(C)CC3)c3ccccc3c2=O)cc(OC)c1OC	-13	105	103	91
O=C1C2=C(Nc3ncnn3C2c2ccccc2)c2ccccc21 (stereo unspecified)	-100	106	129	99
COc1ccccc1N1C(=O)c2ccc(-c3nc4cc(Cl)ccc4c(=O)o3)cc2C1=O	-8	/	85	103
CCCCc1ccc(N2C(=O)CS/C2=C(/C#N)S(=O)(=O)c2ccccc2)cc1	/	109	103	58
CC(C)C(NS(=O)(=O)c1cccs1)C(=O)O (stereo unspecified)	-17	104	110	90
Cn1nnnc1SCC(=O)N1CCCc2ccccc21	-19	104	89	85
O=C(Nc1cc(F)ccc1F)c1n[nH]nc1Nc1ccccc1	-33	103	/	/
Cc1cccc(CNC(=O)C2CCN(C(=O)c3ccnc(-c4ccccc4)c3)CC2)c1	-22	105	/	/

2 records drawn at random from those above:
SMILES	HCMV UL50-53 inh	GIV-Gai inh	Sa growth inh	Sa growth inh second temp
CC(C)C(NS(=O)(=O)c1cccs1)C(=O)O (stereo unspecified)	-17	104	110	90
Cc1ccccc1NC(=O)COC(=O)c1ccc(-c2ccccc2)cc1	-34	/	104	85

Other results:
SMILES	HCMV UL50-53 inh	GIV-Gai inh	Sa growth inh	Sa growth inh second temp
COCC(C)NCc1ccccc1OC (stereo unspecified)	-11	98	111	87
Cc1cc2[nH]c(=O)c(=O)[nH]c2cc1S(=O)(=O)NCc1ccccc1	/	97	101	87
CCc1ccc(NC(=O)N2CCC(N3CCN(Cc4ccc(C)cc4)C(=O)C3=O)CC2)cc1	/	107	127	93
COc1ccc2c(c1)c(=O)oc1c(C)c(OC(C(=O)O)c3ccccc3)ccc12 (stereo unspecified)	/	105	128	74
CNC(=O)c1ccc(Nc2nnc(C)c3ccccc23)cc1	-19	/	87	89
CCOc1ccccc1C(=O)N(Cc1ccco1)Cc1ccccc1F	-2	103	97	72
Cc1ccc(N2CCN(C(=O)c3cnn(-c4ccc(C)c(C)c4)c3C3CCNCC3)CC2)c(C)c1	/	94	120	94
CCn1cnc2cc(NCc3cccs3)ccc21	-2	98	116	80
CCCN(CCC)C(=O)C1CCN(c2cc(C)nc3c(-c4ccc(Cl)cc4)c(C)nn23)CC1	-18	104	107	87
O=C(Cn1nc2c(cc1=O)CCCC2)NCc1ccccc1	/	101	92	87
COc1ccc(N(C(=O)c2ccccc2C)S(=O)(=O)c2ccc(Cl)cc2)cc1	7	110	103	94
CCOc1ccccc1CNS(=O)(=O)c1cnc(N)nc1	/	107	92	89
O=c1c2ccccc2n(Cc2cccc(Cl)c2)c(=O)n1Cc1ccccc1	18	106	94	91
Cc1ccc(C(=O)c2c(N)c(C(=O)Nc3cccc(C(F)(F)F)c3)c3ccccn23)cc1	8	106	94	100
COc1ccc(C(Nc2cc(C)ccn2)c2cc(C)sc2NC(=O)c2ccccc2)cc1 (stereo unspecified)	-31	110	/	/
CCN(CC)c1ncnc2ccc(Br)cc12	10	109	92	99
CC(C)(C)c1cc(CN2CCN(CCC#N)CC2)cc(C(C)(C)C)c1O	/	103	89	93
CCOC(=O)c1cnc(NCc2ccccc2OC)c2ccccc12	/	101	91	91
C/C(=N\NC(N)=O)c1ccc(NC(=O)c2ccc(F)cc2)cc1	7	101	99	96
CCN(Cc1ccccc1)C(=O)Cn1c(=O)n(CCc2ccccc2)c(=O)c2ccccc21	-1	102	85	84
Cc1nc2ccccn2c1-c1ccnc(SCC(=O)N(c2ccccc2)C2CCCCC2)n1	-38	102	94	83
CCOC(=O)N1CCN(C(=O)CSc2ncnc3c2nnn3Cc2ccc(F)cc2)CC1	/	98	105	88
NNc1nc(OC(C(F)(F)F)C(F)(F)F)nc(N(c2ccccc2)c2ccccc2)n1	-15	105	50	63
CC(C)CN1CCn2c(nc3ccccc32)C1	-24	94	/	/
c1ccc2c(c1)nnn2Cc1ccc(Cn2nnc3ccccc32)cc1	-30	106	108	103
COC(=O)c1ccc(CS(=O)(=O)c2ccc(OC)cc2)o1	/	99	114	84
CCc1ccc(N2CCCCn3c2nc2c3c(=O)n(CCc3ccccc3)c(=O)n2C)cc1	-2	109	102	91
CCOc1ccc(C(=O)c2cn(CC(=O)Nc3cc(OC)ccc3OC)c3cc(OC)c(OC)cc3c2=O)cc1	-13	97	95	88
COc1ccc(-c2n[nH]c(=S)n2-c2ccccc2C)cc1OC	/	103	116	77
C=CCOc1cccc(NC(=O)CN2c3ccc(Br)cc3-c3ccccc3S2(=O)=O)c1	-14	101	/	/

3 of the entries above in order of the Sa growth inh second temp value, falling.
| Structure | Sa growth inh second temp |
| --- | --- |
| CCc1ccc(N2CCCCn3c2nc2c3c(=O)n(CCc3ccccc3)c(=O)n2C)cc1 | 91 |
| COC(=O)c1ccc(CS(=O)(=O)c2ccc(OC)cc2)o1 | 84 |
| Cc1nc2ccccn2c1-c1ccnc(SCC(=O)N(c2ccccc2)C2CCCCC2)n1 | 83 |

More entries follow:
SMILES	HCMV UL50-53 inh	GIV-Gai inh	Sa growth inh	Sa growth inh second temp
NC(=N/c1nc2ccccc2o1)/N=C/c1c(O)[nH]c(=O)[nH]c1=O	/	99	105	86
CCC(=O)OCC(=O)Nc1nc2ccccc2s1	-8	/	96	93
O=S(=O)(c1ccccc1)c1nc(-c2cccs2)oc1N1CCCCC1	-7	109	106	102
COc1cc(NC(=O)CCc2c(C)n(C)c3cc(-c4ccccc4C)nn3c2=O)cc(OC)c1OC	/	114	118	104
O=C(COCc1cc(-c2ccc3c(c2)OCO3)on1)Nc1ccc2c(c1)OCCO2	0	100	/	/
CCOc1ccc(-n2nc3ccc(NC(=O)c4ccc(-c5cccc(Cl)c5)o4)cc3n2)cc1	-73	106	102	84
OC(COc1ccc(Br)cc1)Cn1c(Cc2ccccc2)nc2ccccc21 (stereo unspecified)	-17	102	/	/
COC(=O)CSc1nc2c(cnn2-c2ccc(F)cc2)c(=O)[nH]1	/	103	93	89
CC1(C)C2CC=C(/C=N/NC(=O)Cc3cn4ccsc4n3)C1C2 (stereo unspecified)	-27	/	102	85
CCn1c(=O)cc(SCC(=O)Nc2cccc(C#N)c2)c2ccccc21	-16	98	93	87
O=C(Nn1cnc2ccccc2c1=O)c1ccccc1	/	106	118	90
COc1ccc(-c2nnc(NC(=O)c3ccc(S(=O)(=O)N4CCCc5ccccc54)cc3)o2)cc1	2	106	92	85
CCCNC(=O)C1CCN(c2nc3nc[nH]c(=O)c3s2)CC1	-35	110	/	/
O=c1cnnc2sc(SCc3ccccc3)nn12	0	105	101	92
O=C(COc1ccc(F)cc1)Nc1ccc(S(=O)(=O)N(Cc2ccccc2)c2ccccc2)cc1	8	98	108	84

4 entries from above, with bars between the fields:
compound | HCMV UL50-53 inh | GIV-Gai inh | Sa growth inh | Sa growth inh second temp
CC(C)C(NS(=O)(=O)c1cccs1)C(=O)O (stereo unspecified) | -17 | 104 | 110 | 90
Cn1nnnc1SCC(=O)N1CCCc2ccccc21 | -19 | 104 | 89 | 85
O=C(Nc1cc(F)ccc1F)c1n[nH]nc1Nc1ccccc1 | -33 | 103 | / | /
Cc1cccc(CNC(=O)C2CCN(C(=O)c3ccnc(-c4ccccc4)c3)CC2)c1 | -22 | 105 | / | /

Continued.
SMILES	HCMV UL50-53 inh	GIV-Gai inh	Sa growth inh	Sa growth inh second temp
CC(=O)Nc1ccc(S(=O)(=O)Nc2cc(C)nc(C)n2)cc1	11	99	99	104
COc1ccccc1CNS(=O)(=O)c1ccc(-c2cnc(C3CC3)o2)cc1	/	100	78	72
Cc1ccc(NC2=C(C(N)=O)S(=O)(=O)c3ccccc32)cc1	-15	97	/	/
O=C(CCc1ccccc1O)N1CCN(c2ncccn2)CC1	-4	/	90	91
COc1ncnc2c1[nH]c1ccccc12	-11	106	93	89
COc1ccc(-c2nnc3ccc(Cl)nn23)c(OC)c1	-54	/	104	84
CCn1c(C(=O)NCc2cc(Br)ccc2OC)cc2oc3ccccc3c21	-12	102	108	90

Gathered by group, those above containing two or more sulfur atoms.
SMILES	HCMV UL50-53 inh	GIV-Gai inh	Sa growth inh	Sa growth inh second temp
Cn1c(=O)n(C)c2cc(Sc3ccccc3)c(NS(=O)(=O)c3cccc4nsnc34)cc21	-41	107	/	/
CCS(=O)(=O)c1cccc(C(=O)Nc2ccc(-c3nc4ccccc4s3)c(O)c2)c1	/	98	79	65
CCCCc1ccc(N2C(=O)CS/C2=C(/C#N)S(=O)(=O)c2ccccc2)cc1	/	109	103	58
CC(C)C(NS(=O)(=O)c1cccs1)C(=O)O (stereo unspecified)	-17	104	110	90
O=S(=O)(c1ccccc1)c1nc(-c2cccs2)oc1N1CCCCC1	-7	109	106	102
O=c1cnnc2sc(SCc3ccccc3)nn12	0	105	101	92

The order is random. Share with any hit: about 0.8%.
